# Compound activity: PubChem BioAssay, National Center for Advancing Translational Sciences (NCATS)
# TRPML1 agonist: activates the human TRPML1 channel. TRPML1-expressing cells, Ca2+ dye fluorescence, FDSS; host cell line not named in the record; reference of the full effect not given here. activation, % (test concentration not listed). AID 624414. Q9GZU1. 0.12% of 410,000 active; in the data active = activation above about 50%; inconclusive = about 30% to 50%; inactive = below about 30%; further: 0% is about no effect; the text of the record puts the active cut at 80%
# Target sequence (Q9GZU1 whole entry, looked up): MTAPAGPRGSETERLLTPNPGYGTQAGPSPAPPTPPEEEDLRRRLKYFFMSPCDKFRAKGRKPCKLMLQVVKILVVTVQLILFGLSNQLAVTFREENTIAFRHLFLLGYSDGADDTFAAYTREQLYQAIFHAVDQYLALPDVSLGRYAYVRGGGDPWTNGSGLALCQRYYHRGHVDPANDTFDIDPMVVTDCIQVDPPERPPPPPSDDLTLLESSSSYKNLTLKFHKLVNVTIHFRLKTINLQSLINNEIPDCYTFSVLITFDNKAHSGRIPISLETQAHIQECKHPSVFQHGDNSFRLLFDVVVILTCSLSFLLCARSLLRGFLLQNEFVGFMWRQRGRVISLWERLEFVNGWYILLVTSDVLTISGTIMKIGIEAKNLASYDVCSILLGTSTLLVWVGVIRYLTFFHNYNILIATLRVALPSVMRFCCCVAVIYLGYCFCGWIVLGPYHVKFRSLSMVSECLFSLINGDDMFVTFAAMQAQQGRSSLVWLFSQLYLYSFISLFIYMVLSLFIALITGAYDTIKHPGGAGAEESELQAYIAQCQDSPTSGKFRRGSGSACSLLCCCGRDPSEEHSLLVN
#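 TRPML1-DL cells, Tet-induced overnight (~16 h, 37 degrees C), loaded 45-90 min at room temperature with Ca8 no-wash calcium dye plus quencher. FDSS fluorescence: 10 s baseline, compound pin-transfer, 110 s agonist read, then EC80 54-4 (4uM final) and 110 s antagonist read.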
# TRPML1 blocker: blocks the human TRPML1 channel; Q9GZU1; TRPML1-inducible cells, Ca2+ dye fluorescence, FDSS; stronger effect = lower value; inhibition of EC80 agonist-evoked calcium signal; activity change, negative = inhibition, % (test concentration not listed); 0.02% of 390,000 active; AID 624415; in the data active means activity change below about -50%; inconclusive means about -30% to -50%; inactive means above about -30%;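 further: stimulus is agonist 54-4 at its EC80 concentration; on the % scale 0 is the no-effect control and ±100 the full control effect; compound concentration not given in the record; the text of the record puts the active cut at -80%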
#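 Calcium fluorescence in TRPML1-DL cells induced overnight with Tet: a 110 s read after compound pin addition, then a 110 s antagonist read after challenge with 54-4 at 4 uM final (EC80).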
# D2 agonist: human D2 receptor agonism in beta-arrestin assay; P14416; DiscoveRx PathHunter D2 beta-arrestin, luminescence, 90 min; 100% = 57 uM dopamine signal; activation, % (no concentration beside the values); 0.084% of 360,000 active; AID 624465; in the data active = activation above about 40%; inconclusive = about 15% to 40%; inactive = below about 15%; further: compound concentration not given in the record; the text of the record calls up to 30% inactive
# Target sequence (P14416 whole entry, looked up): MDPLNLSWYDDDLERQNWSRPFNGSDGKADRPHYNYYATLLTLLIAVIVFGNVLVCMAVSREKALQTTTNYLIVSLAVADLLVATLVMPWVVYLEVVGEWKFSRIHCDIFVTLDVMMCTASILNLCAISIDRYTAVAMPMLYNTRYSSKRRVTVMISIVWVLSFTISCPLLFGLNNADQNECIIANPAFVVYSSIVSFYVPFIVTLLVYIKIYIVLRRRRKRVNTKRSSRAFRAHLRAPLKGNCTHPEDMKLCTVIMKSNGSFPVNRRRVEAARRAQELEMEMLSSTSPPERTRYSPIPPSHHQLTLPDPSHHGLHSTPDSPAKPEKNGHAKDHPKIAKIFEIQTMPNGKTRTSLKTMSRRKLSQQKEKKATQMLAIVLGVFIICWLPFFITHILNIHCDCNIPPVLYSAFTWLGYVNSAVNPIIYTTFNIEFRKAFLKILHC
#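 DiscoveRx PathHunter D2 beta-arrestin cells (2,100/well) attached overnight, then compound-stimulated 90 min at 37 C in HBSS/10 mM HEPES/0.1% Tween-20 buffer; beta-galactosidase complementation read by luminescence after 1 h at ambient temperature. Dopamine 57 uM final (EC100) as control.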
# CtBP-E1A inh: CtBP/E1A binding inhibition; activity change, % (no concentration beside the values); 0.49% of 340,000 active; AID 651724; AlphaScreen GST-E1A/His-CtBP binding, 1536-well; stronger effect = lower value; control for the full effect not named in the record; in the data active means activity change below about -65%; inconclusive means about -30% to -65%; inactive means above about -30%; further: on the % scale 0 is the no-effect control and ±100 the full control effect; compound concentration not given in the record
#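 Protein mix (5X: 125 nM each GST-E1A, His-CtBP) was incubated with pinned compound 2 h at 37 deg C in dark, in 50 mM Tris pH 8.0 buffer with 300 mM NaCl. Glutathione donor and nickel acceptor beads followed; AlphaScreen signal read after 1 h.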
# PINK1 expr mod: modulators of PINK1 expression; PINK1 immunofluorescence, high-content cytometry, 24 h; Potency, µM (titrated, usually from 76.6 µM), for the others: at the highest dose activation (PINK1 increase), usual class: activators; 0.2% of 410,000 active; active = well fitted activation curve with a large enough effect; inconclusive = small, poorly fitted or top-dose-only effect; inactive = flat fitted curve, though single readings scatter; cell line not stated here;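 further: potency means the concentration at half of the fitted maximal effect; % of control where 0% means no effect; nearly all actives have a fitted effect of over 65% in size; a mitochondrial uncoupler was the plate control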
#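 A stable cell line was treated with compounds at 5 concentrations for 24 hours, with CCCP as control. PINK1 levels and mitochondrial localization were measured by immunofluorescence with mitochondrial, cell and nuclear markers after fixation, read by laser-scanning cytometry.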
# Six1-Eya2 inh: inhibitors of human Six1/Eya2 interaction. AlphaScreen GST-Six1/His-Eya2 binding, biochemical; stronger effect = lower value; control for the full effect not named in the record. activity change, % (test concentration not listed). 0.56% of 360,000 active. AID 651725; in the data active = activity change below about -65%; inconclusive = about -30% to -65%; inactive = above about -30%; further: on the % scale 0 is the no-effect control and ±100 the full control effect; compound concentration not given in the record
#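 AlphaScreen luminescence read after one hour at 37 °C in darkness. Pin-transferred compounds met GST-Six1 and His-Eya2 protein (5X stock 250 nM/500 nM) plus glutathione donor and Ni-chelate acceptor beads (5X, 50 ug/mL).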
# * = called active by the depositor; ? = inconclusive; . = no result given; [ ] = remark or other dose.
mol	D2 agonist	PINK1 expr mod	TRPML1 agonist	TRPML1 blocker	CtBP-E1A inh	Six1-Eya2 inh
Cc1cc(/C=C(/C#N)c2cccc(F)c2)c(C)n1-c1cccnc1	4.7	-4.0%[38.3 µM]	-0.3	17.6	9.4	-29.9
Cc1cc(C)cc(OCc2cc(=O)n3c4c(sc3n2)CCCC4)c1	.	-0.5%	-0.1	-22.4	.	.
CNC(=O)C1CC(=O)N(Cc2ccc3c(c2)OCO3)C(=Nc2ccc(OC)cc2)S1 (configuration not stated)	-3.5	.	-0.2	-9.3	-9.4	-7.5
Cc1ccc(C(=O)N2CCC(C(=O)c3ccc(Cl)cc3)CC2)cc1	-4.1	0.9%	-0.4	4.7	5.4	2.8
CCCCCC(=O)c1ccc(O)cc1O	-0.6	0.4%	-0.9	-15.8	3.4	2.3
O=C(N1CCOCC1)N1CCCN(C(=O)N2CCOCC2)CC1	0.2	4.6%	-0.1	2.1	4.2	0.0
CSc1ccc(CN(C)CC(=O)Nc2cccc(Br)c2)cc1	-1.4	-0.1%	2.5	24.7	18.9	3.6
O=C(N/C(=C\c1cccnc1)C(=O)N1CCCCC1)c1cccc(Br)c1	0.4	-1.4%	-0.3	-1.6	2.5	-2.3
Cc1cc2oc(=O)cc(CN(C)Cc3ccccc3F)c2cc1Cl	1.3	2.9%	1.8	12.5	13.2	1.8
COC1C=COC2(C)Oc3c(C)c(O)c4c(O)c(c(CN5CCN(C)CC5)c(O)c4c3C2=O)NC(=O)C(C)=CC=CC(C)C(O)C(C)C(O)C(C)C(OC(C)=O)C1C (configuration not stated)	5.6	-0.2%	0.0	-18.8	-13.9	-7.5
CC(C)CC(N)c1csc(Nc2ccc(C(=O)c3ccccc3)cc2)n1 (configuration not stated)	9.8	-0.7%	0.5	.	-3.3	-2.2
CC(C)c1cc(C(=O)Nc2cccc(C(F)(F)F)c2)no1	0.6	1.4%	-0.4	-5.5	64.7	15.6
CC(=O)N1c2ccc(S(=O)(=O)N3CCCC(C(=O)NCc4ccc(Cl)cc4)C3)cc2CC1C (configuration not stated)	-1.8	1.6%	0.0	-1.0	4.2	1.7
CC(C)COc1ccc(C(=O)Nc2cc3nn(-c4ccccc4)nc3cc2Cl)cc1	.	-1.6%	-0.6	12.0	.	.
O=C(CSCc1c(F)cccc1Cl)NCc1ccncc1	0.0	1.7%	-0.3	-10.2	2.4	4.8
COc1ccccc1C1CC(=O)Oc2cc(C)c(Cl)c(C)c21 (configuration not stated)	-3.4	12.0%	1.0	-1.0	6.0	-2.0
CCOc1ccccc1NC(=O)Cc1c(F)cccc1Cl	-4.7	-1.2%	-0.2	3.2	3.0	5.6
COc1ccc(NC(=O)c2ccc(COCC(F)(F)C(F)F)cc2)cc1	0.7	6.4%	2.4	39.6	5.0	1.0
Cc1ccnc(NS(=O)(=O)c2ccc(NC(=O)C34CC5CC(C)(CC(C)(C5)C3)C4)cc2)n1	0.8	0.9%[38.3 µM]	1.2	19.6	-4.3	2.1
CC1(C(=O)NS(=O)(=O)Cc2ccccc2)CCN1C(=O)C1(c2ccc(Cl)cc2)CC1 (configuration not stated)	-3.9	0.2%	-0.4	.	5.4	2.9
CCC(=O)N1CCc2cc(S(=O)(=O)CCC(=O)N3CCCC(C)C3)ccc21 (configuration not stated)	6.6	-0.4%	0.8	28.1	.	1.4
COc1cccc2cc(C(=O)NCc3ccco3)c(=Nc3ccc(C(=O)O)cc3)oc12	-0.9	-0.7%[38.3 µM]	2.3	-0.2	10.6	3.2
Cc1ccc(S(=O)(=O)N2C[C@H]3N(C(=O)OC(C)C)N(C(=O)OC(C)C)C[C@H](OC(=O)NCC4CCCCC4)[C@@]3(O)C2)cc1	-1.6	?	2.1	-23.7	-0.5	19.1
O=C(O)c1ccc(Sc2ccccn2)c([N+](=O)[O-])c1	-0.6	0.3%	-0.3	-4.9	7.6	-4.0
O=C1Nc2ccccc2C1=Nc1ccccc1-c1ccccc1	-17.4	9.5%	1.1	-2.6	5.9	-7.5

# Entries of single compounds, looked up by structure. Order of screens: D2 agonist	PINK1 expr mod	TRPML1 agonist	TRPML1 blocker	CtBP-E1A inh	Six1-Eya2 inh
# CC(=O)N1c2ccc(S(=O)(=O)N3CCCC(C(=O)NCc4ccc(Cl)cc4)C3)cc2CC1C (configuration not stated) is listed with -1.8	1.6%	0.0	-1.0	4.2	1.7
# COc1ccc(NC(=O)c2ccc(COCC(F)(F)C(F)F)cc2)cc1 is listed with 0.7	6.4%	2.4	39.6	5.0	1.0

# Continued:
mol	D2 agonist	PINK1 expr mod	TRPML1 agonist	TRPML1 blocker	CtBP-E1A inh	Six1-Eya2 inh
Cc1nc(C)n(C(C)CNC(=O)c2ccccc2)n1 (configuration not stated)	-1.7	2.2%	0.1	6.0	-2.2	3.8
CCOC(=O)c1ccc(NC(=O)Cn2nnc(-c3ccccc3)n2)cc1	0.1	-0.4%	0.0	9.9	5.0	20.0
COc1ccc(Cc2nnc(NC(=O)c3ccccc3[N+](=O)[O-])s2)cc1	-3.1	-0.6%	0.5	13.6	.	3.4
CCCCn1nc(C(=O)NCc2ccccc2CN2CCCC2)c2ccccc2c1=O	-3.9	-1.7%	-0.1	19.4	.	-1.4
CCCCCCCCNS(=O)(=O)CCNC1CC1	-3.5	7.4%	-1.1	-7.7	10.1	5.1
CC1CCCCC1NC(=O)CCC(=O)N1CCOc2ccc(Cl)cc21 (configuration not stated)	-5.8	0.5%	-0.8	6.9	-3.2	1.6
CCn1c(=O)c2sccc2n2c(CCC(=O)Nc3cc(C)cc(C)c3)nnc12	.	3.3%	-0.9	-12.4	.	.
CCCC(=O)C1=C(N2CCCC2)CC(C)(C)C(C(=O)OC)C1=O (configuration not stated)	-2.1	0.3%	0.6	17.2	-0.3	0.7
CCOc1ccc(N2CC(C(=O)OCC(=O)NCc3ccccc3)CC2=O)cc1 (configuration not stated)	-0.7	-0.6%[38.3 µM]	-0.6	-10.8	6.6	1.9
COc1ccc(CC(=O)NNC(=S)NCC2CC2)cc1OC	-0.3	-0.6%	1.1	4.7	4.1	2.9
N=c1c2c(-c3ccccc3)c(-c3ccccc3)n(Cc3ccco3)c2ncn1CCN1CCOCC1	-0.8	-3.3%[38.3 µM]	-0.1	10.5	-16.1	-6.2
CN(C)CCCN(C(=O)c1cc(Cl)sc1Cl)c1nc2cc3c(cc2s1)OCO3	-1.5	0.2%	1.4	-7.1	?	-26.9
Cc1ccc(C(=O)N/C(=C\c2sccc2C)C(=O)NCc2ccco2)cc1	-2.6	0.5%	-1.3	-7.0	-11.6	1.8
Cc1ccc(S(=O)(=O)N(CC(=O)Nc2c(C)cccc2C)c2cccc(Cl)c2)cc1	.	1.8%	2.3	45.8	.	.
COc1ccc(C)cc1NC(=O)CCCN1C(=O)C(c2ccccc2)Oc2cccnc21 (configuration not stated)	-2.0	-0.8%	1.5	43.5	-5.6	-7.1
Clc1ccc(-c2ccccc2)cn1	-2.7	0.0%	-0.4	-11.3	4.2	5.5
CC(C)C(=O)Nc1cccc(-c2cnc3ccccc3n2)c1	-1.2	-2.5%[38.3 µM]	0.2	-6.1	-6.3	-4.1
COc1cccc(CC(NC(C)=O)C(=O)NC2CCN(c3c(Cc4ccccc4)c(C)nc4ncnn34)CC2)c1 (configuration not stated)	0.6	1.7%	0.2	4.9	-8.8	-0.6
O=C(CN=C1NS(=O)(=O)c2ccccc21)OCC(=O)c1cc(F)ccc1F	-12.3	1.7%	1.2	-2.1	.	6.2
CC(C)(C)C1CCC(=NNC(=O)c2ccccc2-n2cccc2)CC1 (configuration not stated)	-0.3	6.1%	0.4	-1.4	3.7	4.8
CCn1c(COc2ccccc2C)nnc1SCC(=O)Nc1ccc2c(c1)OCCO2	-2.0	?	0.9	-3.3	-3.9	-2.7
CCOC(=O)c1c(NC(=O)C2CC2)sc2c1CC(C)(C)OC2	-1.3	7.7%	-0.4	2.0	4.3	6.2
COc1ccc2c(COC(=O)[C@@H]3CCCN3S(=O)(=O)c3ccc(Cl)cc3)cc(=O)oc2c1	-1.7	-0.1%	0.0	23.3	-5.2	-6.5
CC(=O)Nc1ccc(C(=O)OCC(=O)c2cccc([N+](=O)[O-])c2)cc1	0.9	2.1%	0.1	9.5	-2.1	1.8
Cc1ccc([N+](=O)[O-])cc1S(=O)(=O)N1CCn2cccc2C1c1ccccc1F (configuration not stated)	.	-0.5%	2.2	7.3	.	.

# Next structures follow.
mol	D2 agonist	PINK1 expr mod	TRPML1 agonist	TRPML1 blocker	CtBP-E1A inh	Six1-Eya2 inh
COc1ccccc1C(=O)COC(=O)/C(=C/c1ccccc1)NC(C)=O	-0.1	-1.3%	-0.5	-15.6	1.2	-4.8
CC(C)CC(Nc1ncnc2scc(-c3ccccc3)c12)C(=O)O (configuration not stated)	6.8	0.8%	0.1	-10.7	.	-2.2
CC(=O)Nc1cccc(-c2nnc(SCC(=O)c3cc([N+](=O)[O-])ccc3Cl)o2)c1	.	4.0%	2.4	-11.7	.	.
CCc1nc(SCC(=O)Nc2ccc(F)cc2)c2c(=O)n(C)c(=O)n(C)c2n1	-1.1	7.3%	2.0	4.6	-21.7	2.9
O=C(c1ccc(C#CC2(O)CCCCC2)cc1)N1CCOCC1	-0.6	-0.4%[38.3 µM]	-0.1	19.9	7.1	1.6
S=c1sscc1-c1ccccc1	-4.9	8.1%	-1.1	4.4	-80.7*	-70.1*
Cc1nn(CCN)c(C)c1Cl	2.1	-0.3%	0.8	11.6	.	9.2
COC(=O)c1ccc(CN(c2ccc(C)cc2)S(=O)(=O)c2ccc3c(c2)OCCO3)o1	-0.9	1.1%	-0.2	12.5	-0.8	-11.1
NS(=O)(=O)c1cc(C(=O)Nc2ccc3c(c2)OCCCO3)ccc1Cl	7.1	-0.8%	-0.5	14.1	-1.0	8.3
CCn1nc(C)cc1C(=O)N(C)C1CCCN(Cc2ccccc2F)C1 (configuration not stated)	-1.2	1.3%	1.5	15.9	10.8	0.8
CCOCCCNC(=O)c1ccc(-c2nc(CS(=O)(=O)c3ccccc3)c(C)o2)cc1	.	1.7%	-0.5	3.6	.	.
COc1cccc(OCc2cc(=O)n3cc(C)sc3n2)c1	.	0.7%	0.1	3.5	.	.
CCCCCCn1c(Br)nc2c1c(=O)n(C)c(=O)n2C	0.0	-0.6%	1.9	-1.8	4.8	-6.1
CCOC(=O)c1ccc(Nc2ncnc3nc[nH]c23)cc1	-0.7	-1.5%	-0.8	25.4	-0.2	-2.0
CC1(C)O[C@@H]1COc1c2ccoc2cc2oc(=O)ccc12	2.7	0.4%	-0.1	5.4	.	-2.3
COc1ccc(OCc2ccc(-c3nc4ccccc4c(=O)n3N)o2)cc1	0.5	-0.8%	-0.1	-22.6	-1.2	-5.9
